Bioassay records (PubChem)
KCNQ2 enhance – potentiators of rat KCNQ2 potassium channel; AID 2239, 2010; hit rate 0.54% among 310,000; B-score at 10 µM; CHO-K1 KCNQ2, FluxOR thallium flux fluorescence; hits give high values;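 active = fluorescence ratio B-score at least 3 SD of library B-scores, with initial fluorescence B-score within 3 SD, cut at about 5.3 in these data; same plate scores as AID 2156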;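 note: B-score of peak minus minimum over baseline fluorescence ratio after K+ and Tl+ stimulus; positive B-score means potentiation of KCNQ2 with more thallium influx and brighter signal; only the inactives scoring about 0 or higher are listed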
Target sequence (O88943 whole entry, looked up): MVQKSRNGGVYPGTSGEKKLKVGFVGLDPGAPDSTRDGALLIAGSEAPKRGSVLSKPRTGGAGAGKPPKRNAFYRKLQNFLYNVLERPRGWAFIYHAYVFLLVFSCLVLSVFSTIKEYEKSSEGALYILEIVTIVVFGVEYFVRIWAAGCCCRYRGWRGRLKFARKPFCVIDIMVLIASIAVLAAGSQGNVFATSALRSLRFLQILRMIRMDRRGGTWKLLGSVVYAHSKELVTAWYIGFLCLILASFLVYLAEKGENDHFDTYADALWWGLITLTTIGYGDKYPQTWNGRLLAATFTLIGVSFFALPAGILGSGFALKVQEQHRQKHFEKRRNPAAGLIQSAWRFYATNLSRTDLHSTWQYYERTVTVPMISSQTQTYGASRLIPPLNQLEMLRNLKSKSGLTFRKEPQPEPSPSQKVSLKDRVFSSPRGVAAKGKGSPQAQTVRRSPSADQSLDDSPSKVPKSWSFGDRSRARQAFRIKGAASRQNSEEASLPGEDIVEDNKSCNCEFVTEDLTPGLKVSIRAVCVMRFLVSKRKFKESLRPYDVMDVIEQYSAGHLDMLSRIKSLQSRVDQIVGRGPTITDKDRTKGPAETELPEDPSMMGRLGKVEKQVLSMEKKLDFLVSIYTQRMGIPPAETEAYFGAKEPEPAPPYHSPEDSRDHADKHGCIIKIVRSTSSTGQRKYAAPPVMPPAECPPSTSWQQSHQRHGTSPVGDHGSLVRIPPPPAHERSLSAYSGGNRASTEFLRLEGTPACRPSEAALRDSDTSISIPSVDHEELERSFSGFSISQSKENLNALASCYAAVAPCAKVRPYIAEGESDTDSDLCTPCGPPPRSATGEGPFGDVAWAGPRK
KCNQ2 enhance baseline – also measured in KCNQ2 enhance; calls as there; B-score; compound at 10 µM; measured here: initial fluorescence intensity artifact check;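 brightness before thallium and not channel activity; 0 = typical well and far values either way flag optical interference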
* hit, by the source's call. A portion of the library; the hit share may differ from the screen's.

A first look:
SMILES	KCNQ2 enhance	KCNQ2 enhance baseline
COc1c(S(=O)(=O)N2CCN(C(=O)c3ccco3)CC2)ccc(Cl)c1Cl	0.13	-1.7
CCN(CC(=O)NCC1CCCO1)S(=O)(=O)c1ccc2ccccc2c1 (stereo not given)	0.27	0.67

This part in full, previewed entries included:
SMILES	KCNQ2 enhance	KCNQ2 enhance baseline
COc1c(S(=O)(=O)N2CCN(C(=O)c3ccco3)CC2)ccc(Cl)c1Cl	0.13	-1.7
CCN(CC(=O)NCC1CCCO1)S(=O)(=O)c1ccc2ccccc2c1 (stereo not given)	0.27	0.67
O=C(CSC1=Nc2ccccc2C2=NC(c3ccccc3)C(=O)N12)NCC1CCCO1 (stereo not given)	0.5	-2.6
Fc1cccc(NC(=S)NCCN2CCOCC2)c1	1	-0.87
CCOC(=O)CNC(=O)CSc1nc2cccnc2n1CC	1.7	0.04
Cc1ccccc1NC(=O)Cc1nc(COC(=O)CNS(=O)(=O)c2cccc(Br)c2)cs1	0.56	-0.12
CCCCNC(=O)NCC(=O)Nc1ccc(F)c(F)c1	0.18	-2.1
Cc1cc(C)c2c(=O)[nH]c(SCC(=O)N(C)C)nc2n1	2.2	0.37
CNC(=S)NNC(=O)Cc1ccc(OC)cc1	0.95	-0.32
Cn1ncc([N+](=O)[O-])c1C(=O)Nc1ccn(Cc2ccccc2F)n1	0.84	0.01
COc1cc(C(=O)NCCc2cn3ccccc3n2)cc(OC)c1OC	0.86	-0.09
CC(=O)NC1C(=O)N=C(SCC(=O)Nc2c(C)cccc2C)NC1=O (stereo not given)	0.54	-2.3
COc1ccccc1N1CCN(C(=O)c2cccc(N3C(=O)NC4CC3(C)Oc3c(OC)cccc34)c2)CC1 (stereo not given)	0.83	0.01
Cc1ccc(C(C)NC(=S)NC2CCCCC2)cc1C (stereo not given)	25*	1.1*
Nc1ccc(Oc2ccc3c(c2)OCO3)cc1	0.01	0.08
Cc1ccccc1NC(=O)CN1CCC(n2nnc3ccccc32)CC1	2	1
C#CCOCCOCCOCCNc1nc(N2CCN(C(=O)Cn3cc(CCCN=C(N)N)nn3)CC2)nc(N2CCN(C(=O)[C@H]([C@@H](C)CC)n3cc(CCC(=O)O)nn3)CC2)n1	1.4	0.16
Cc1nc(-c2ccc(C(=O)Nc3cc(S(N)(=O)=O)ccc3C)cc2)cs1	0.72	-0.33
CC(=O)Nc1sc2c(c1C(c1ccccn1)N1CCN(C)CC1)CCCC2 (stereo not given)	2.6	-0.09
O=c1c2cccnc2[nH]c(=S)n1CCC1=CCCCC1	12*	0.31*
O=C(c1ccc(Cl)c(S(=O)(=O)N2CCCCCC2)c1)N1CCCC1	0.95	-0.91
COc1ccc(N2C(=O)NC(=O)C2=O)cc1	0.3	0
O=C(COC(=O)/C=C/c1ccc(C(F)(F)F)cc1)NCC1CCCO1 (stereo not given)	0.5	0.99
CNC(=O)CS(=O)(=O)CC(=O)Nc1cc(OCCOC)c(Cl)cc1Cl	0.02	-0.67
CC(C)(C)c1ccc(S(=O)(=O)Nc2ccc3c(c2)COC3=O)cc1	0.17	0.01
N#CC1(c2ccccc2)CCC(NCCc2ccccc2)CC1 (stereo not given)	1.5	-1.6
CCn1nnc(NC(=O)c2ccccc2Br)n1	0.03	-0.21
CN(C)c1oc(-c2ccc(Cl)cc2)nc1S(=O)(=O)c1ccccc1	1.4	0.52
NC(=O)C1=C[C@@H](C2CCCCC2)C[C@@H](OCCCCO)O1	0.93	1.6
COCCn1c(C)cc(C(=O)CSc2nnc(-c3cccnc3)n2-c2ccccc2F)c1C	0.19	1.9
CN1C(=O)C(CCC(N)=O)NC1=S (stereo not given)	0.19	0.19
Nn1cnnc1N/N=C/c1cc([N+](=O)[O-])c(Cl)cc1Cl	1.6	-0.1
O=C(NCc1ccncc1)C(=O)NCC(c1ccco1)N1CCN(c2ccccc2)CC1 (stereo not given)	0.44	-0.46
Cn1c(=O)c2c(ncn2CC(=O)OCC(=O)Nc2ccc(Cl)cc2Cl)n(C)c1=O	0.98	0.35
O=C(CCSCc1ccccc1)Nc1ccc2c(c1)OCCO2	1.8	0.86
C=CCn1c(-c2cc(OC)c(OC)c(OC)c2)n[nH]c1=S	0.15	-0.35
Cc1csc(NC(=O)c2oc3ccccc3c2C)n1	2.1	-0.66
COc1ccc(N2C(=O)CC(Nc3cccc(C(C)=O)c3)C2=O)cc1OC (stereo not given)	0.84	-0.02
CC(=O)c1c(N2CCN(c3cccc(Cl)c3)CC2)nc(=S)n(-c2ccccc2)c1C	0.17	-0.87
O=C(c1cc(=O)c2ccccc2o1)N(Cc1ccccc1)C1CCS(=O)(=O)C1 (stereo not given)	0.86	-0.65
Cc1ccc(CNC(=O)c2cnc3ccccc3n2)cc1	0.18	-2
COc1ccc(N2CS(=O)(=O)/C(=C/N(C)C)C2=O)cc1	0.6	-0.4
OCCC1CN(Cc2cccc(F)c2F)CCN1CCc1ccccc1 (stereo not given)	0.01	-0.72
CCOc1cc(Br)c(Br)c(C=Nc2ccc(NC(C)=O)cc2)c1O	1.7	-0.65
COc1cccc(OC)c1C(=O)NC(=S)N1CCOCC1	1.2	0.73
Cc1csc(Nc2ccccc2)n1	0.51	-2.3
O=C(Nc1sc2c(c1C(=O)O)CCCCC2)c1cccs1	2	-0.14
CC(=O)Nc1ccc(OCC(=O)NCc2ccc(C)cc2)cc1	0.68	0.63
CCC(=O)N/C(=N/c1nc(C)cc(C)n1)Nc1cccc(OC)c1	1.9	0.01
CCOc1ccccc1NC(=O)Nc1ccc(CC#N)cc1	0.9	-1.3

Record cards, as listed above.
Shown for `COc1ccc(N2CS(=O)(=O)/C(=C/N(C)C)C2=O)cc1` → KCNQ2 enhance = 0.6; KCNQ2 enhance baseline = -0.4
Shown for `Cc1ccc(CNC(=O)c2cnc3ccccc3n2)cc1` → KCNQ2 enhance = 0.18; KCNQ2 enhance baseline = -2
Shown for `CCOc1ccccc1NC(=O)Nc1ccc(CC#N)cc1` → KCNQ2 enhance = 0.9; KCNQ2 enhance baseline = -1.3

New compounds follow
SMILES	KCNQ2 enhance	KCNQ2 enhance baseline
CCCN(CC(=O)Nc1ccccc1OC)C(=O)c1ccncc1	0.55	-2.3
O=c1cc(O)c2ccccc2[nH]1	0.16	-0.32
CCCCC1=CC2=C(c3ccco3)C(=O)C(C)(OC(=O)c3ccc(OC)cc3)C(=O)C2=CN1CCN1CCOCC1 (stereo not given)	0.09	0.06
CCCCNC(=S)N(C)/N=C/c1sc(N2CCCCC2)nc1-c1cccs1	0.01	1.4
CCOC(=O)C1=C(O)C(=O)N(c2ccc(S(N)(=O)=O)cc2)C1c1ccc([N+](=O)[O-])cc1 (stereo not given)	0.16	-0.29
COC(=O)CCC(=O)NNC(=O)c1ccc(Br)cc1	1.5	-1.6
COC(=O)COc1cccc(NC(=O)c2cccs2)c1	0.71	-0.38
O=C(CN1C(=O)c2ccccc2S1(=O)=O)c1ccccc1F	0.23	0.07
CCN(CC(=O)N1CCC(C(N)=O)CC1)S(=O)(=O)c1ccc(Cl)cc1	0.01	1.3
S=c1[nH]nc(-c2ccco2)n1-c1ccc(Cl)cc1	0.65	-0.12

Fetched one by one from the list above (4):
SMILES	KCNQ2 enhance	KCNQ2 enhance baseline
CCCN(CC(=O)Nc1ccccc1OC)C(=O)c1ccncc1	0.55	-2.3
CCN(CC(=O)N1CCC(C(N)=O)CC1)S(=O)(=O)c1ccc(Cl)cc1	0.01	1.3
CCOC(=O)C1=C(O)C(=O)N(c2ccc(S(N)(=O)=O)cc2)C1c1ccc([N+](=O)[O-])cc1 (stereo not given)	0.16	-0.29
S=c1[nH]nc(-c2ccco2)n1-c1ccc(Cl)cc1	0.65	-0.12

(continued)
SMILES	KCNQ2 enhance	KCNQ2 enhance baseline
COc1cc2c(cc1OC)-c1cc(Nc3ccccc3Br)nc(=O)n1CC2	0.45	0.04
Cc1nc([N+](=O)[O-])c(N2CCN(Cc3ccccc3)CC2)n1Cc1ccccc1	0.47	0.61
O=C(CCOc1ccccc1)N1CCN(c2ccc(O)cc2)CC1	0.5	0.27
CC(=O)Oc1ccc(/C=N/NC(=O)C2CCCN2S(=O)(=O)c2ccc(Cl)cc2)cc1 (stereo not given)	0.25	2.3
COc1ccc(OC)c(S(=O)(=O)N(C(C)=O)c2ccc3oc(=O)sc3c2)c1	0.51	1.1
CCCCc1c(O)nc(SCC(=O)Nc2ccc3c(c2)CCC3)[nH]c1=O	1.4	-2.9
COc1ccc(C(=O)N2CCN(c3ccccn3)CC2)cc1	0.06	1.7
Cc1cccc(NC(=O)Cn2c(O)c(N=NC(=O)c3ccccc3O)c3ccccc32)c1	0.42	0.49
C=CCNC(=S)NNC(=O)c1cccn(Cc2ccc(Cl)cc2Cl)c1=O	0.88	-1.6
O=C(O)/C=C/c1coc2ccc(F)cc2c1=O	1	0.67
C/C=C(\C)C(=O)Nc1cccc(C2=NOC3(C2)C[C@@H](C(N)=O)N(C(=O)c2cc([N+](=O)[O-])cc([N+](=O)[O-])c2C)C3)c1 (stereo not given in full)	0.13	-0.97
O=c1oc2ccccc2cc1N1CCOCC1	0.19	0.02
O=C(/C=C/c1ccc(Cl)c([N+](=O)[O-])c1)Nc1ccc(N2CCCC2)cc1	0.55	-0.01
O=C(COc1ccc2ccc(=O)oc2c1)N1CCN(c2ccc(F)cc2)CC1	1.1	-0.44
O=C(NCCC1=CCCCC1)c1cccc2c1C(=O)N(C1CCCCC1)C2	1.4	0.1
Cc1ccc(SCC(=O)OCC(=O)N(CCC#N)c2ccccc2)cc1C	0.02	0.77
c1ccc(Nc2ncnc3[nH]ncc23)cc1	2.4	0.79
COc1cc2c(cc1OC)C(C)N(C(=S)Nc1ccccc1)CC2 (stereo not given)	1.8	0.02
COc1ccc(C(=O)CSc2nnc(NC(=O)C3CC(=O)N(c4ccccc4)C3)s2)cc1 (stereo not given)	2.4	-0.81
Cn1c(=O)n(C)c2cc(NS(=O)(=O)c3cccs3)ccc21	1	1.1
O=C(CSc1ccc(-c2ccccc2)nn1)c1ccccc1	1.6	-0.64
O=C(CCc1ccc(S(=O)(=O)N2CCCCC2)cc1)c1nnc(-c2ccccc2)o1	0.27	0.25
CCc1ccccc1NC(=O)c1ccoc1C	0.59	1.8
CC(C(=O)O)c1ccc2c(c1)[nH]c1ccc(Cl)cc12 (stereo not given)	0.07	-1.3
Cc1ccc(C)c(N2CCN(C(=O)CCS(=O)(=O)c3cccc4nonc34)CC2)c1	0.44	-2.1
O=C(NNS(=O)(=O)c1ccccc1)c1ccccc1-n1cccc1	0.09	-1.3
O=C1CCC[C@H]2c3[nH]c4ccccc4c3CCN12	0.05	0.11
Cc1ccc(S(=O)(=O)N(C)c2cc(S(=O)(=O)N3CCOCC3)c(C)cc2C)cc1	0.06	-1.2
CCOC(=O)CSc1ccc(C(=O)Nc2ccc(Cl)cc2)cn1	1.1	-1.8
Cc1ccc(C(=O)Nc2ccc(Oc3cccc(C(F)(F)F)c3)nc2)cc1	1.8	1.3
CCC1(C)N=C(N)Nc2nc3cc(C)c(C)cc3n21 (stereo not given)	1.6	-2.4
CCc1ccc(C(C(=O)NC2CCCC2)N(C(=O)c2csnn2)C2CC2)cc1 (stereo not given)	0.06	-0.56
O=C(CCC(=O)NNC(=O)Cc1ccccc1)NCc1ccccc1	0.31	0.2
O=C(NC(NC(=O)c1ccccc1)c1cccc([N+](=O)[O-])c1)c1ccccc1	0.06	1.1
Cc1c(Br)c([N+](=O)[O-])nn1C(C)C(=O)Nc1nccs1 (stereo not given)	1.5	-0.57
CCCC(=O)Nc1cc(C(=O)O)ccc1S(=O)(=O)c1ccc(Cl)cc1	0.88	0.77
Fc1cccc(NC(=S)Nc2ccc(Br)cc2)c1	0.59	-0.9
CC(=O)OCC(=O)Nc1ccc(SC(F)F)cc1	2.3	-2.1
COc1ccc(N2CC(C(=O)Nc3ccccc3C(=O)NC3CC3)CC2=O)cc1 (stereo not given)	1.5	0.23
COc1ccccc1NC(=O)C(=O)c1cn(CC(=O)N2CCCC2)c2ccccc12	1.4	-0.05

3 compounds from above, arranged by the value under KCNQ2 enhance, low to high.
molecule,KCNQ2 enhance
CCCCNC(=S)N(C)/N=C/c1sc(N2CCCCC2)nc1-c1cccs1,0.01
O=C1CCC[C@H]2c3[nH]c4ccccc4c3CCN12,0.05
CCOC(=O)CNC(=O)CSc1nc2cccnc2n1CC,1.7

Additional structures:
SMILES	KCNQ2 enhance	KCNQ2 enhance baseline
Cc1ccc(-n2c(=O)cc(N3CCCCCC3)[nH]c2=O)cc1	0.39	-0.02
COc1ccccc1NC(=O)Cc1nnc(SCC(=O)NC2CCCC2)n1C	0.63	-0.02
c1ccc(CNCc2ccc3c(c2)OCO3)nc1	1.3	-0.01
O=S(=O)(c1cc(Cl)ccc1Cl)N1CCC2(CC1)OCCO2	0.05	-0.19
Cc1csc2c(NC3CCN(Cc4ccccc4)CC3)ncnc12	0.65	-0.3
Cc1cccc(-c2noc(CNC(=O)c3ccc4c(c3)OCO4)n2)c1	0.74	-1.7
CC(O)Cn1ccccc1=N (stereo not given)	0.32	1.5
Cc1cc(C)c(NC(=O)CC(=O)c2ccccc2)c(Cl)c1	1.9	-0.41
COC(=O)c1ccc(N2CCN(CC(=O)c3ccc(C)cc3)CC2)c([N+](=O)[O-])c1	0.84	0.46
O=C1NC(=S)N/C1=C/c1cccc([N+](=O)[O-])c1	0.22	0
Cc1cc(NC(=O)CCC(=O)N(c2ccccc2C)C(C(=O)NC2CCCC2)c2ccccc2)no1 (stereo not given)	1.4	0.48
Cc1c(Cl)cccc1NC(=S)NC(=O)c1cncc(Br)c1	2.5	-0.44
CCOC(=O)c1cccc(N2C(N)=NC(N)=NC2(C)C)c1	0.25	-0.19
COc1ccc(CCN(C)Cc2ccc(OCc3ccccc3)c(OC)c2)cc1OC	2	-0.02
Cn1c(NC(=O)C[n+]2cc(-c3ccc(Cl)cc3)n3c2CCC3)cc(=O)n(C)c1=O	1.1	-0.47
C=CCOc1c(Br)cc(/C=N/NC(=O)Cc2ccc(C(F)(F)F)cc2[N+](=O)[O-])cc1OC	1	-0.12
